Mtb H37Rv = Confirmatory growth inhibition assay against Mycobacterium tuberculosis H37Rv, potency (AID 1949); most inactive calls were filed without a number and no value below 0 was filed; inhibition, % at 10 µg/mL, or IC50 in µg/mL where a hit was titrated; 100,000 compounds, 1.6% hits;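 active = confirmed in a dose series; inconclusive = about 50% or more but not retested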;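 also: bacteria grown 7 days with compound before Alamar blue readout; 0% = untreated bacteria and 100% = reference antibiotic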
The depositor's hits bear a star; i = inactive; u = inconclusive. An excerpt; rates above refer to the full screens.

SMILES | Mtb H37Rv
COC(=O)Cc1c(C)c2ccc(OCc3ccccc3F)c(C)c2oc1=O | 0%
CNC(=O)c1cc2cc(Cc3ccccc3)cc([N+](=O)[O-])c2oc1=O | u
O=C(CN1C(=O)C2C3C=CC(C3)C2C1=O)Nc1ccc2c(c1)oc1ccccc12 (stereo not given) | 7%
COc1cc(OC)cc(C(=O)NC(C)(C)CO)c1 | i
Cc1cc(C)c(C#N)c(SC2CCCCC2=O)n1 (stereo not given) | 1%
CCn1c(=O)[nH]c2cc(C(=O)Nc3ccc(OC)cc3)ccc2c1=O | i
CCC(C(=O)Nc1sc2c(c1C(N)=O)CCCCC2)c1ccccc1 (stereo not given) | i
COc1ccc2c(c1)c(=O)oc1cc(OCC(=O)N3CCC(C)CC3)ccc12 | i
O=C(NCCC1=CCCCC1)c1cc(-n2cnnc2)ccc1Cl | i
CC1(C)Cc2nc(N3CCOCC3)c(C#N)cc2CO1 | i
CCN(CC)C(=O)COc1ccc2c(-c3ccc(OC)cc3)cc(=O)oc2c1 | 2%
Cc1cc(Cl)ccc1NC(=S)Nc1ccccn1 | i
Cc1ccc(C(=O)NCc2ccc3c(c2)OCO3)c(C)c1 | i
O=S(=O)(CCc1nc2ccccc2s1)c1ccc2ccccc2c1 | 3%
COc1cccc2cc(C(=O)Oc3ccc(NC(C)=O)cc3)c(=O)oc12 | 2%
O=C(NCCN1CCOCC1)C1CC1c1ccccc1 (stereo not given) | i
O=C(Nc1ccccc1)Nc1ccc(Oc2ccccc2)cc1 | i
COc1ccccc1NC(=O)C1CCN(S(C)(=O)=O)CC1 | i
CCC(C)c1ccc(OCCCN2CCN(C)CC2)cc1 (stereo not given) | i
CNc1nc(SCc2ccccc2)nc(N2CCOCC2)n1 | 10%
Cc1cc([N+](=O)[O-])ccc1NC(=O)COc1ccc(-c2ccccc2)cc1Br | 6%
Cc1ccc(-c2csc(NC(=O)Cc3ccc(Cl)cc3)n2)c(C)c1 | i
Cc1nc(SCCCSc2n[nH]c(C)n2)n[nH]1 | 1%
NC(=O)c1ccc(NC(=O)Nc2ccc(Cl)c(Cl)c2)cc1 | i
CCn1nnnc1NCc1c(OC)ccc2ccccc12 | i
CC(=O)c1cn(Cc2ccccc2F)c2ccccc12 | i
COc1ccccc1Nc1nc(-c2ccccc2)nc2ccccc12 | i
CC(=O)N1CCc2nc3sc(C(=O)Nc4ccc(C(C)(C)C)cc4)c(N)c3c(C(F)(F)F)c2C1 | i
COc1ccc(C(=O)NCCNC(=O)c2ccc(OC)cc2OC)c(OC)c1 | i
CCOC(=O)c1c(NC(=O)c2sccc2C)sc(C(=O)Nc2ccccc2)c1C | i
Cc1cc(C)n(-c2cc(C(=O)O)cc(C(=O)O)c2)n1 | i
Cc1cccc(N2C(=O)CC(NC3CCCCC3)C2=O)c1 (stereo not given) | i
COc1cc(NC(=S)NC2CCCC2)c(OC)cc1Cl | i
Cc1ccc(N(C)C(=O)Oc2cccc3cccnc23)cc1 | i
Cc1ccc(/C(N)=N/OC(=O)COc2ccc(Cl)cc2Br)cc1 | i
NC(=O)c1ccccc1NC(=O)COc1ccc([N+](=O)[O-])cc1 | 3%
CCC(C)Cn1c(C(C)C)nc2ccccc21 (stereo not given) | i
COc1cc2oc(=O)cc(C)c2cc1Cl | 0%
C1CCCC(N2CCC(N3CCOCC3)CC2)CC1 | i
O=C(CN1C(=O)c2cccc3cccc1c23)NC1CC2CCC1C2 (stereo not given) | i
COc1ccc(Br)cc1S(=O)(=O)n1ccnc1C | 1%
O=C(NCc1ccncc1)Nc1cccc([N+](=O)[O-])c1 | 1%
CC(=O)Nc1sc2c(c1C(=O)Nc1ccc(Oc3ccccc3)cc1)CCC2 | i
O=C(CCc1ccccc1)Nc1ccc(C(=O)NC2CCCCC2)cc1 | i
CC12CCC(C(=O)Nc3ccc(OC(F)(F)F)cc3)(CC1=O)C2(C)C (stereo not given) | 3.1µg/mL*
CS(=O)(=O)N1N=C(c2cccs2)CC1c1ccccc1F (stereo not given) | i
O=C(Nc1ccc(-c2nc3ccccc3s2)cc1)c1ccc(-c2ccccc2[N+](=O)[O-])o1 | 2%
O=C(CSc1nnc(-c2cccnc2)o1)N1CCCCCC1 | i
CC(NC(=S)Nc1ccc(Br)cc1Cl)c1ccncc1 (stereo not given) | i
COC1=Nc2ccccc2C2C(C(=O)C34CC5CC(CC(C5)C3)C4)C12C#N (stereo not given) | 1%
CCOc1cc(C=O)cc(I)c1OC(=O)c1ccco1 | 1%
O=[N+]([O-])c1ccc2oc(-c3ccc(Cl)c(Cl)c3)nc2c1 | i
O=C(Cn1nnc(-c2ccccc2F)n1)NCc1ccco1 | 3%
O=C1OC(C(=O)NCCc2c[nH]c3ccccc23)Cc2ccccc21 (stereo not given) | i
CCCCn1c(=N)n(CC(O)COc2cccc(C)c2)c2ccccc21 (stereo not given) | 6µg/mL*
CC(=O)Oc1cccc(C(=O)Nc2ccc(NC(=O)c3cccs3)cc2)c1 | i
Cc1cccc(NC(=S)NC(=O)c2ccco2)c1O | 48%
O=C(c1ccccc1-c1ccccc1)N1CCN(c2ccccn2)CC1 | i
CCOC(=O)c1c(NC(=O)c2cccs2)sc(C(C)=O)c1C | i
Cc1cc(C)c(NC(=O)COc2ccc(-c3ccccc3)cc2)c(C)c1 | 1%

Carrying on.
SMILES | Mtb H37Rv
COc1ccc(C(=O)N2CCN(C(=O)c3cccs3)CC2)cc1 | i
COc1ccc(NC(=O)CCC2CCCC2)cc1OC | i
COc1ccccc1C(=O)NC1CCC(NC(=O)c2ccccc2OC)CC1 (stereo not given) | i
COc1ccc(CNCc2ccccc2C(F)(F)F)cc1OC | i
CC1(C)CC(=O)C2=C(C1)N(Cc1cccnc1)C(=O)C2(NC(=O)C1CC1)C(F)(F)F (stereo not given) | i
COc1ccc(Cl)cc1N(CC(=O)Nc1ccc(C)cc1C)S(=O)(=O)c1ccccc1 | 6%
Fc1ccc(Cn2nnc(-c3ccccc3)n2)cc1 | 3%
CCC(Cc1ccccc1)NC(=O)C1CCCCC1 (stereo not given) | i
COc1cccc(-c2cc(C(=O)NCCCN3CCOCC3)c3ccccc3n2)c1 | 1%
CC(C)(c1ccccc1)c1ccc(OCCNCCN)cc1 | i
O=C(CCN1C(=O)C2C3C=CC(C4CC34)C2C1=O)Nc1ccc(Br)cc1Cl (stereo not given) | i
CCOc1ccc(C(=O)Nc2ccc3c(c2)OCCO3)cc1OC | i
CCOC(=O)c1c(N)sc2c1CCC(c1ccccc1)C2 (stereo not given) | 14%
CCn1c(SCC(=O)Nc2ccc(Cl)cc2Cl)nnc1-c1ccccc1 | 1%
CC(=O)NNC(=O)Cc1ccc(OCC(C)C)cc1 | 4%
CCC1CCCCN1C(=S)NCCc1ccc(OC)c(OC)c1 (stereo not given) | 0%
CC(c1ccccc1)N1C(=O)NC(NC(=O)c2ccc(F)cc2)(C(F)(F)F)C1=O (stereo not given) | i
Cc1[nH]c2ccccc2c1/C=C/c1nc2ccccc2c(=O)n1CCCO | i
Oc1ccccc1-c1cc(-c2ccccc2Cl)[nH]n1 | 8%
Cc1ccccc1OCc1n[nH]c(=O)n1C | i

Part of the list above in order of length of the SMILES, lowest first.
SMILES | Mtb H37Rv
CC(=O)NNC(=O)Cc1ccc(OCC(C)C)cc1 | 4%
O=C(CCN1C(=O)C2C3C=CC(C4CC34)C2C1=O)Nc1ccc(Br)cc1Cl (stereo not given) | i
CC(c1ccccc1)N1C(=O)NC(NC(=O)c2ccc(F)cc2)(C(F)(F)F)C1=O (stereo not given) | i
CC1(C)CC(=O)C2=C(C1)N(Cc1cccnc1)C(=O)C2(NC(=O)C1CC1)C(F)(F)F (stereo not given) | i

New compounds follow
SMILES | Mtb H37Rv
COc1cc(C(=O)Nc2ccc3oc(-c4cncc(Br)c4)nc3c2)cc(OC)c1OC | i
NS(=O)(=O)c1ccc(NC(=O)N2c3ccccc3Sc3ccccc32)cc1 | i
O=C(NC(=S)Nc1ccccc1N1CCOCC1)c1ccc(Br)cc1 | 0%
COCCCNCCOCCOc1ccc(C(C)C)cc1 | i
CNC(=S)Nc1ccc(Oc2ccccc2Cl)cc1 | i
O=C(NCCCCNC(=O)c1ccc(F)cc1)c1ccc(F)cc1 | i
CCOc1ccc(N(CC(=O)NC)S(=O)(=O)c2ccc(C)cc2)cc1 | i
CCCc1nc2ccc(NC(C)=O)cc2[nH]1 | 1%
N=C1C(c2nc3ccccc3s2)=C(O)CN1c1ccc(F)cc1 | i
CCOc1ccc(S(=O)(=O)N(CC(=O)Nc2cccc([N+](=O)[O-])c2)c2ccccc2)cc1 | 2%
Cn1c(SCc2ccc(F)cc2)nnc1-c1ccc([N+](=O)[O-])cc1 | i
Cc1ccc(OCc2nnc(SCC(=O)Nc3nccs3)n2C)cc1 | i
Cc1ccc(-c2nc3cc(NC(=O)Cc4ccccc4)ccc3o2)cc1C | i
COc1ccccc1N1CCN(S(=O)(=O)c2ccc3c(c2)OCCO3)CC1 | i
Fc1ccc(NC(=S)Nc2cccnc2)c(F)c1F | i
CC1CCN(c2ccc(-c3n[nH]c(=O)c4ccccc34)cc2[N+](=O)[O-])CC1 | i
O=C(O)CCc1nn2c3ccccc3nc2n(Cc2ccccc2)c1=O | 1%
COc1cc(C(=O)Nc2ccc(Br)c(C)c2)cc(OC)c1OC | i
COc1ccc(CCNC(=O)C2CCN(C(=O)c3ccc(Br)cc3)CC2)cc1 | i
CS(=O)(=O)c1ccc2nc(NC3(C(F)(F)F)N=C4SCCN4C3=O)sc2c1 (stereo not given) | i

Some values from the list:
CCOC(=O)c1c(N)sc2c1CCC(c1ccccc1)C2 (stereo not given) in Mtb H37Rv has 14%
CCCCn1c(=N)n(CC(O)COc2cccc(C)c2)c2ccccc21 (stereo not given) in Mtb H37Rv has 6µg/mL*

Going on with the list:
SMILES | Mtb H37Rv
O=C(O)c1ccccc1OCCCCOc1cccc2cccnc12 | i
Cc1ccc(OCC(=O)N2CCN(Cc3ccc4c(c3)OCO4)CC2)c(Br)c1 | i
CC(C)(C)NS(=O)(=O)c1ccc(NC(=O)c2ccc3c(c2)OCO3)cc1 | i
COc1ccc(S(=O)(=O)NCc2cccnc2)c(Cl)c1Cl | i
O=C(CN1C(=O)c2ccccc2C1=O)N1CCN(c2cccc(Cl)c2)CC1 | i
CCCC(C)C(=O)Nc1ccc2c(c1)OCCO2 (stereo not given) | i
COC(=O)c1ccccc1NC(=S)NC(=O)c1ccc(Br)cc1 | 4%
COc1cccc(NC(=O)Nc2cc(OC)cc(OC)c2)c1 | i
Cc1cccc(NC(=O)c2ccccc2Cl)c1 | i
O=C(O)c1ccc(-n2nc(C(F)(F)F)c3c2CCCC3)cc1 | i
Cc1ccc(S(=O)(=O)N(C)CC(=O)NC2CC(C)(C)NC(C)(C)C2)cc1 | i
COC(=O)c1c(N)n(-c2ccc(Cl)c(Cl)c2)c2nc3ccccc3nc12 | i
Fc1ccccc1-c1nc(-c2ccc(Cl)cc2)no1 | i
CCc1ccc(C2CC(c3ccccc3)=NN2S(C)(=O)=O)cc1 (stereo not given) | 3%
CCCCNC(=O)c1ccccc1NC(=O)c1ccc(CN2CCc3ccccc3C2)cc1 | i
Cc1nnc(NC(=O)c2cccc(C)c2[N+](=O)[O-])s1 | i
C=CCn1c(Sc2ccc(C(F)(F)F)cc2[N+](=O)[O-])nnc1-c1ccccc1Cl | 0.19µg/mL*
O=C(Nc1c(-c2ccccc2)nc2ccc(Cl)cn12)c1ccccc1 | 3%
CNC(=O)CN(c1cc(C)ccc1OC)S(C)(=O)=O | i
CC(C)(C)NC(=O)c1cccc(NC(=O)CN2C(=O)c3ccccc3C2=O)c1 | i

4 compounds picked at random from those above:
SMILES | Mtb H37Rv
COCCCNCCOCCOc1ccc(C(C)C)cc1 | i
CC(NC(=S)Nc1ccc(Br)cc1Cl)c1ccncc1 (stereo not given) | i
Fc1ccc(Cn2nnc(-c3ccccc3)n2)cc1 | 3%
O=C(NC(=S)Nc1ccccc1N1CCOCC1)c1ccc(Br)cc1 | 0%

(continued)
SMILES | Mtb H37Rv
COc1ccc(C(=O)Nc2ccccc2C(=O)NC(C)(C)C)c(OC)c1 | 0%
CCC(=O)N(c1nc(-c2ccc(OC)cc2)c(C)s1)c1ccccc1Cl | 1%
CC(C)NC(=O)c1ccc(OC2CSC2)cc1 | i
O=C(COc1ccc(NC(=O)c2cccs2)cc1)c1ccc(Br)cc1 | 3%
O=c1[nH]c2c(n1-c1ccccc1)C=Nc1cc3ccccc3cc1N2 | i
CCOC(=O)CSc1n[nH]c(-c2ccncc2)n1 | i
N=C(c1cccc([N+](=O)[O-])c1)N1CCCCC1 | i
COCCNC(=O)CSCc1c(F)cccc1Cl | i
Fc1ccccc1NC(=S)N1CCN(c2ccccn2)CC1 | i
Cc1cccc(NC(=O)c2ccccc2NC(=O)C(C)(C)C)c1C | 0%
O=C(C1CC1)N(CCN(Cc1ccccc1)C(=O)C1CC1)Cc1ccccc1 | i
COc1cccc(N2C(=O)CC(N3CCCCC3)C2=O)c1 (stereo not given) | i
CCC(Oc1ccccc1)C(=O)Nc1cc(C(=O)OC)cc(C(=O)OC)c1 (stereo not given) | i
CCc1cccc(OCCOCCn2ccnc2)c1 | i
COc1ccc(-n2nc3ccc(NC(=O)c4cccs4)cc3n2)cc1 | i
CCC(=O)N1CCN(c2ccc(NC(=O)c3cc(Br)ccc3Cl)cc2)CC1 | 26%
CCC(C(=O)Nc1sc2c(c1C(N)=O)CCCCCC2)c1ccccc1 (stereo not given) | i
COc1ccc(C2=NN(C(=O)c3ccccc3)C(c3ccccc3)C2)c(OC(C)=O)c1 (stereo not given) | i
COc1ccc(OC)c(N(CC(=O)N2CCN(c3cc(Cl)ccc3C)CC2)S(=O)(=O)c2ccccc2)c1 | 8%

Compound activity: PubChem, Southern Research Institute
